# Polio RdRp inh: inhibitors of poliovirus RNA polymerase binding and polymerization | poliovirus polymerase elongation, fluorescence polarization; hits give low values | % elongation, % (compound at 16.7 µg/mL) | 150,000 compounds, 0.66% hits | AID 588519; in the data active = % elongation below about 90%; also: some results filed as inactive read as strong as hits
# Target sequence (P03300 1749-2209 limits assumed): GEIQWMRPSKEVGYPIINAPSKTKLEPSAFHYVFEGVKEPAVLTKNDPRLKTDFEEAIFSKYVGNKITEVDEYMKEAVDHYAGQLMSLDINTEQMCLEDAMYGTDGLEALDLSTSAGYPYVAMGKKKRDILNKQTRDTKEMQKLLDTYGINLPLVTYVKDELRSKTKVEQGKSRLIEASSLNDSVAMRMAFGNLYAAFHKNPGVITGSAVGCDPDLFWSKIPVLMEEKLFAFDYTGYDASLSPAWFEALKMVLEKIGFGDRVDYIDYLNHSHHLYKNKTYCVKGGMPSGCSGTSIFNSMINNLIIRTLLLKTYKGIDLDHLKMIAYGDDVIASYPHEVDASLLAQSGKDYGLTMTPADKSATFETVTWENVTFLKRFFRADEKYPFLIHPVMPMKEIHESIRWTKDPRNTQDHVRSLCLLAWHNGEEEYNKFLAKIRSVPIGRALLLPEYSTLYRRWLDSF
# Mtb MbtI inh: inhibitors of Mycobacterium tuberculosis siderophore enzyme MbtI; P9WFX0; purified MbtI enzyme, fluorescence intensity read-out; inhibition, %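 (about 17 µg/mL by stock and volumes)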; 100,000 compounds, 0.89% hits; AID 493033;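 active = above 50% in both replicates, above 80% if mildly self-fluorescent; inactive = the rest, strongly fluorescent compounds included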;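 also: 0% = mean of negative and 100% = mean of positive controls; one replicate is shown; some compounds called inactive have numbers as strong as hits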
# Mtb MenB inh: blocks the Mycobacterium tuberculosis MenB enzyme; P9WNP5; MenB enzyme assay, absorbance read-out; some hits fall short of the stated cut; inhibition, %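 (about 12 µg/mL by stock and volumes)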; 100,000 compounds, 0.43% hits;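 active = mean of two replicates above 30%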;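 also: 0% = no compound and 100% = wells with inactive enzyme; the first replicate is given; strong numbers were not always called active; inactives centre near -10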
# Target sequence (P9WNP5 whole entry, looked up): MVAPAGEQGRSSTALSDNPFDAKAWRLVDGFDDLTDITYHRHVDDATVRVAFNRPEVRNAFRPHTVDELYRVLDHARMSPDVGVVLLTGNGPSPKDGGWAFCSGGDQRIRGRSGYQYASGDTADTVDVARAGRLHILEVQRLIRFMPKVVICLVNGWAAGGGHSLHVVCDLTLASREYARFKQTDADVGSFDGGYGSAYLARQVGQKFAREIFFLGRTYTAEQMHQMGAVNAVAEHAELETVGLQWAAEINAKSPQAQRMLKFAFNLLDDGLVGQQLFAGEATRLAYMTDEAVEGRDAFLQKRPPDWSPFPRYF
# Polio RdRp inh intensity: further read-out of Polio RdRp inh, marked with its call; % elongation; measured here: total intensity read-out; formula for this scale not given here;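 total fluorescence in place of polarization; lower means less elongation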
# * = called active by the depositor; . = no result given; & = joins results of further samples.
no.	SMILES	Polio RdRp inh	Polio RdRp inh intensity	Mtb MbtI inh	Mtb MenB inh
1	CC(c1ccccc1)n1cc(C(=O)NCC2COc3ccccc3O2)nn1 (configuration not stated)	103	102	1	-59
2	O=C(CSCc1ccco1)c1ccccc1F	98	94	6	.
3	CCOc1ccc(CN2CCNC(=O)C2CC(=O)OC)cc1 (configuration not stated)	99	102	-7	2
4	COc1ccc(-c2noc(CNC(=O)COc3ccccc3)n2)cc1	104	100	-3	-15
5	CC1CN(C)C(C)C(/C=C(/C#N)C(N)=S)C1=O (configuration not stated)	100	103	19	-115
6	CCCn1c(=O)c2sccc2n2c(CCCC(=O)NCc3cccnc3)nnc12	102	103	26	-26
7	CC(C)=C1SC(N2CCN(c3ccccc3)CC2)=NC1=O	99	97	31	-5
8	O=C(Nc1cccc(C(=O)NCc2ccc3c(c2)OCO3)c1)C1=CSCCO1	100	103	-15	-7
9	CSc1nnc(CCNC(=O)NCc2ccccc2)n1C	103	102	-5	-12
10	CSc1ccccc1C(=O)NCCOc1ccccc1C	104	110	.	-17
11	N#CCCN1CCn2c3ccc(C4CCCCC4)cc3c3cccc1c32	100	107	182	-42
12	Cn1nc(C(=O)Nc2ccc(Cl)cc2)ccc1=O	109	104	1	-18
13	CC1CC(=O)Nc2ccccc2N1S(=O)(=O)c1cn(C)cn1 (configuration not stated)	105	102	1	-8
14	O=C1C=CC(=O)N1c1ccccc1C(F)(F)F	101	106	98*	.
15	Cc1ccc(C(=O)n2nc(-c3cccnc3)nc2NCc2ccco2)cc1	99	102	10	-17
16	O=C(O)CCCC1=NS(=O)(=O)c2ccccc2N1	107	98	-4	-34
17	COC(=O)COc1cccc2c(=O)n(CC(N)=O)ccc12	101	106	30	-12
18	O=C(O)C1C2CCC(CC2)C1C(=O)O (configuration not stated)	103	94	-9	-11
19	CCN(CC)C(=S)SC1CS(=O)(=O)CC1O (configuration not stated)	101	102	2	6
20	O=C(CSCc1ccco1)CN1CCc2ccccc21	103	104	-13	-46
21	Cc1oc(/C=N/NS(=O)(=O)c2ccccc2)cc1Br	97	103	23	-10
22	CSc1nnc(Cn2c(=O)sc3ccccc32)n1CCc1ccccc1	98	101	5	-14
23	COc1ccc(-n2cnc3cc(C(=O)NC4CCCCC4C)ccc32)cc1 (configuration not stated)	104	105	-5	-116
24	Cc1ccc(C(=O)NC(CC(=O)O)C(F)(F)F)cc1 (configuration not stated)	103	107	-3	.
25	O=C(Cn1nc(-c2ccccc2)ccc1=O)N1CCC2(CC1)OCCO2	102	102	28	-13
26	CN(C)c1cccc(NC(=O)c2ccco2)c1	102	106	1	.
27	CONC1=CC(=O)c2ccccc21	104	105	-8	5
28	Cc1nc2ccc(NC(=O)/C=C/c3ccc(Br)o3)cc2s1	104	103	-9	-160
29	Cc1cc2occ(CC(=O)OCc3ccc(C#N)cc3)c2cc1C	108	109	7	-30
30	CC(C)NC(=O)c1ccc(Cl)cc1Cl	99	99	-20	-30
31	CCCn1c(=O)n(Cc2ccc(Br)cc2)c2ccccc21	117	135	1	-29
32	CCOC(=O)C1=C(C)NC(=S)NC1c1cccc(O)c1 (configuration not stated)	103&101	103&101	9	-3
33	CCN(C(=O)c1ccnc(C(C)(C)C)c1)c1ccccc1	100	101	2	8
34	Nc1ccc2c(c1)ncn2CCc1ccccc1	98	100	-142	-23
35	CC(C)N1CC=C2C(C1)C(c1ccccc1Cl)C(C#N)=C(N)C2(C#N)C#N (configuration not stated)	63	181	32	-168
36	CCOC(=O)C(C)n1nc(C)c2sc3ccccc3c2c1=O (configuration not stated)	103	97	-8	-26
37	CC(C)CN1CCOC(CN)C1 (configuration not stated)	104	109	-2	10
38	O=C(COc1cc2oc(=O)c3c(c2cc1Cl)CCC3)NCc1ccco1	111	110	102	-14
39	O=C1NC(Cc2c[nH]c3ccccc23)C(=O)N1CCN1C(=O)c2ccccc2C1=O (configuration not stated)	106	107	-13	-16
40	CC(C)c1cc(NC(=O)CSc2nc3ccc(Cl)cc3[nH]2)on1	104	104	5	-33
41	Cc1cccc(OC(C)C(=O)OCC(=O)c2cc3ccccc3o2)c1 (configuration not stated)	106	107	-11	-30
42	CCOC(=O)c1cc(-c2ccccc2)n(CCCC(=O)NCc2ccccc2)c1C	102	107	-7	-32
43	CCn1c2c(c(=O)[nH]c1=O)C(c1ccsc1)C1=C(N2)c2ccccc2C1=O (configuration not stated)	104	101	5	-33
44	O=C(N1CCOCC1)N1CCN(Cc2ccccc2)CC1	104	99	-18	-42
45	CCC(C(=O)NC1CCCC1)N(C(=O)c1snc(C(N)=O)c1N)c1ccccc1 (configuration not stated)	103	101	-28	-5
46	Cc1cc(C)cc(NC(=O)c2ccc(COc3ccccc3Br)o2)c1	102	104	18	19
47	O=C(Cc1cccs1)NCCCN1CCCC1=O	100	102	-5	-5
48	Clc1ccc(Sc2ccc(-c3ccccn3)s2)cc1	116	113	28	-25
49	CCOC(=O)c1ccc(NC(=O)C2=CSCCO2)cc1	103	101	7	-1
50	N#Cc1ccc(NC(=S)NCCN2CCOCC2)cc1	111	111	.	-9
51	CCN(CC)c1nn2c(=O)c(C(=O)N3CCC4(CC3)OCCO4)cnc2s1	100	101	115	5
52	O=S(=O)(c1cccc(Cl)c1Cl)N1CCOCC1	100	106	-6	33*
53	Cn1c(=O)c2c(-c3ccc(Br)cc3)n(CCO)cc2n(C)c1=O	99	102	-6	10
54	CCN1CCN(C(=O)Nc2ccc(OC)cc2)CC1	100	99	-23	-19
55	Cc1nc(-c2c[nH]c3ccccc23)c(C)s1	73*	78*	.	-15
56	S=c1[nH]nc(C2CCCCC2)n1N=Cc1cccnc1	102	98	23	-30
57	O=c1ccccn1CCOc1ccc(Cl)cc1Cl	102	102	3	8
58	CC(=O)N(C)Cc1nc2ccccc2n1CCOc1cccc(C)c1C	102	100	6	-26
59	O=C(CCN1N=C(c2ccccc2)CCC1=O)Nc1cccc(C(F)(F)F)c1	103	94	14	-21
60	CCn1c(CSc2nnc(C3CC3)n2C)nc2cc(S(=O)(=O)N3CCCCC3)ccc21	104	109	-12	-14

# Following part:
no.	SMILES	Polio RdRp inh	Polio RdRp inh intensity	Mtb MbtI inh	Mtb MenB inh
61	CCC(=O)Nc1nonc1-c1ccc(OC)cc1	103	103	-8	-17
62	Cc1nn(-c2ccc(Cl)cc2)c2sc(C(=O)O)cc12	104	99	33	-25
63	CN(C)S(=O)(=O)c1ccc(C(=O)Nc2ccccc2SCCC#N)cc1	101	103	40	5
64	CCC(CO)Nc1nnc(-c2ccccc2)c2ccccc12 (configuration not stated)	99	98	-8	.
65	Oc1ccccc1C(=S)N1CCN(C(=S)c2ccccc2O)CC1	101	103	94*	-46
66	N#Cc1c(NC(=O)/C=C\C(=O)O)sc2c1CCCC2	98	100	3	-15
67	CC(C)CN(CC(C)C)C(=O)c1cc(-c2ccccc2)n[nH]1	101	106	-11	6
68	CC1CCCCN1C(=O)c1oc(=O)c2ccccc2c1-c1ccccc1 (configuration not stated)	103	106	0	-4
69	COC(=O)c1cc(S(=O)(=O)N2CCc3ccccc3C2)c[nH]1	100	101	-9	4
70	CCc1ccc(C2C(C(=O)Nc3ccccc3C)=C(C)NC3=C2C(=O)CCC3)cc1 (configuration not stated)	109	111	.	-11
71	O=c1[nH]c2ccccc2cc1CO	102	101	68	-5
72	CC(C)NC(=O)NC(C)C	101	99	2	-17
73	Cc1ccc2cc(C)c(Nc3ccc4c(c3)OCO4)nc2c1	103	109	2	.
74	O=C(c1n[nH]c(=O)c2ccccc12)N1CCN(C2c3ccccc3-c3ccccc32)CC1	102	104	-5	-12
75	NS(=O)(=O)/C=C/c1ccc(Cl)cc1	98	101	-5	-3
76	CC(C)N(CC(N)=O)c1ncnc2sc3c(c12)CCC3	102	98	12	-27
77	CCCn1cnc2c(oc3ccccc32)c1=O	103	101	13	-11
78	CC1=CC=CC2=NC(=O)CC(C)(C(=O)O)N12 (configuration not stated)	100	101	95	1
79	COC(=O)c1ccc2c(=O)[nH]c(COC(=O)c3ccc4c(c3)OCCO4)nc2c1	102	99	8	-17
80	N#C/C(C(N)=O)=C1/C(=O)Nc2ccc(Br)cc21	98	110	.	-12

# Taken from above:
# Mtb MenB inh with no. 78 reads 1
# Polio RdRp inh with no. 63 reads 101

# Further entries follow:
no.	SMILES	Polio RdRp inh	Polio RdRp inh intensity	Mtb MbtI inh	Mtb MenB inh
81	O=C(Nc1ncn[nH]1)c1ccc(Cl)cc1Cl	101	99	-3	-36
82	CCOC(=O)C1CCN(C(=O)CN2C(=O)c3ccccc3C2=O)CC1	105	112	0	10
83	O=C(O)c1ccc(CN2C(=O)CSc3ccccc32)o1	100	101	.	-8
84	Cc1csc(=O)n1CC(=O)OCC(=O)N(C)c1c(N)n(Cc2ccccc2)c(=O)[nH]c1=O	105	102	2	-29
85	CC(C)CNc1ncnc2c1c(-c1ccccc1)cn2-c1ccccc1	102	105	-4	-8
86	O=C1Nc2ccc(S(=O)(=O)Nc3ccccc3)c3cccc1c23	99	99	9	-33
87	CCc1nn2c(=O)cc(COc3ccc(/C=C4/C(=N)N5C=CSC5=NC4=O)cc3OC)nc2s1	101	104	1	-20
88	O=C(NC(=S)Nc1cc(C(F)(F)F)cc(C(F)(F)F)c1)Oc1ccccc1	105	99	5	-27
89	O=c1nc(Nc2ccc(OC(F)(F)F)cc2)oc2ccccc12	110	108	-15	3
90	CCN(CC)c1c(S(=O)(=O)c2ccc(C)cc2)cnc2ccccc12	101	106	2	-83
91	Cc1ccc(Nc2nnc(SCC(=O)N(C)C)s2)cc1	97	96	-2	-23
92	COc1ccc(CCNC(=O)c2cn(C)c(=O)c3cc(OC)c(OC)cc23)cc1OC	103	104	4	-23
93	CCOC(=O)C1=C(CSc2nnc(-c3cccs3)n2-c2ccccc2)NC(=O)NC1C (configuration not stated)	105	100	15	-40
94	CC(C)(C)c1csc(-c2sccc2COc2ccc(Cl)cc2)n1	104	104	107	3
95	COc1ccc(-c2nnc3[nH]c(=O)cc(C)n23)cc1	105	112	-27	-11
96	CC(=O)Nc1ccc(S(=O)(=O)N(C)c2ccc(O)c(N=Nc3cccc4c(=O)[nH][nH]c(=O)c34)c2)cc1	99	105	5	6
97	CCOc1ccc2c(c1)sc(=N)n2Cc1ccc(Cl)cc1	102	107	-12	.
98	Cc1c(C)c(NC(=O)/C=C/C(=O)O)c(C)c(C)c1NC(=O)/C=C/C(=O)O	103	95	60*	10
99	COc1ccc2nc(Cl)c(CN(C(=O)c3ccco3)C3CCCC3)cc2c1	105	99	8	-31
100	Cc1nn2c3c(sc2nc1=O)C(=O)N(c1ccc(F)c(Cl)c1)C3=O	102	102	3	13

# Ordered by number of heavy atoms (low to high): part of the list above
no.	SMILES	Polio RdRp inh	Polio RdRp inh intensity	Mtb MbtI inh	Mtb MenB inh
95	COc1ccc(-c2nnc3[nH]c(=O)cc(C)n23)cc1	105	112	-27	-11
83	O=C(O)c1ccc(CN2C(=O)CSc3ccccc32)o1	100	101	.	-8
94	CC(C)(C)c1csc(-c2sccc2COc2ccc(Cl)cc2)n1	104	104	107	3

# Other entries follow.
no.	SMILES	Polio RdRp inh	Polio RdRp inh intensity	Mtb MbtI inh	Mtb MenB inh
101	N#C/C=C/c1ccc(C(=O)O)cc1	98	104	.	-19
102	Cc1sc2ncn3ncnc3c2c1C	99	101	0	11
103	COc1ccccc1OCC(=O)Nc1ccc(S(=O)(=O)N2CCN(C)CC2)cc1	102	101	-2	5
104	O=S(=O)(c1ccccc1)N1CCCC(c2nc(-c3cccs3)no2)C1 (configuration not stated)	103	103	-2	-13

# Of the compounds above, these contain an NH in an aromatic ring.
no.	SMILES	Polio RdRp inh	Polio RdRp inh intensity	Mtb MbtI inh	Mtb MenB inh
39	O=C1NC(Cc2c[nH]c3ccccc23)C(=O)N1CCN1C(=O)c2ccccc2C1=O (configuration not stated)	106	107	-13	-16
40	CC(C)c1cc(NC(=O)CSc2nc3ccc(Cl)cc3[nH]2)on1	104	104	5	-33
43	CCn1c2c(c(=O)[nH]c1=O)C(c1ccsc1)C1=C(N2)c2ccccc2C1=O (configuration not stated)	104	101	5	-33
55	Cc1nc(-c2c[nH]c3ccccc23)c(C)s1	73*	78*	.	-15
56	S=c1[nH]nc(C2CCCCC2)n1N=Cc1cccnc1	102	98	23	-30
67	CC(C)CN(CC(C)C)C(=O)c1cc(-c2ccccc2)n[nH]1	101	106	-11	6
69	COC(=O)c1cc(S(=O)(=O)N2CCc3ccccc3C2)c[nH]1	100	101	-9	4
71	O=c1[nH]c2ccccc2cc1CO	102	101	68	-5
74	O=C(c1n[nH]c(=O)c2ccccc12)N1CCN(C2c3ccccc3-c3ccccc32)CC1	102	104	-5	-12
79	COC(=O)c1ccc2c(=O)[nH]c(COC(=O)c3ccc4c(c3)OCCO4)nc2c1	102	99	8	-17
81	O=C(Nc1ncn[nH]1)c1ccc(Cl)cc1Cl	101	99	-3	-36
84	Cc1csc(=O)n1CC(=O)OCC(=O)N(C)c1c(N)n(Cc2ccccc2)c(=O)[nH]c1=O	105	102	2	-29
95	COc1ccc(-c2nnc3[nH]c(=O)cc(C)n23)cc1	105	112	-27	-11
96	CC(=O)Nc1ccc(S(=O)(=O)N(C)c2ccc(O)c(N=Nc3cccc4c(=O)[nH][nH]c(=O)c34)c2)cc1	99	105	5	6

# Compound activity from PubChem.
